Screening results deposited in PubChem by Fisher Drug Discovery Resource Center.
NPYLR7 ag – mosquito NPYLR7 agonism; HEK293T NPYLR7/Galpha15, GCaMP6s calcium fluorescence; hit rate 0.15% among 270,000; AID 1259423; activation, % at 10 µM; in the data active = activation above about 40%;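 also: 0% = vehicle and 100% = reference agonist at the receptor; some compounds past the cut are filed as inactive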
NPYLR7 ag max-min – second read-out of NPYLR7 ag, no call of its own (marks repeat the call); activation, %; measured here: Max-Min RFU normalised activation; some inactives read as strong as hits;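 span of the calcium signal over five minutes; 0% = vehicle and 100% = native peptide agonist; compound fluorescence can raise it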
* marks the source's active call; other numbers are inactive results; & = joins results of further samples.

SMILES | NPYLR7 ag | NPYLR7 ag max-min
Cc1cccc(-c2nnc(-c3ccc(C(=O)NCC(C)(C)O)cc3)o2)c1 | 4 | 1
COc1ccc(C(=O)C2CCCN(C(=O)CCc3cccs3)C2)cc1OC (stereo unspecified) | -6 | -10
CC(C)CN(CC(=O)N(CCc1ccccc1)Cc1ccco1)C(=O)c1ccc2c(c1)OCO2 | -5 | -5
C=CCn1c(SCc2cc(=O)n3c(C)csc3n2)nnc1C1CCCCC1 | 7 | 8
Cc1c(Cl)c(C(F)(F)F)nn1CC(=O)Nc1ccc(F)c(Cl)c1 | -2 | -1
Cn1ccn2ncc(C(=O)NCCN3CCc4ccccc43)c12 | 4 | 5
CN1CCN(c2ccc3nnc(C(F)(F)F)n3n2)CC1 | -1 | -1
CCN(CC)C(=O)Oc1ccc2c(ccn2Cc2cccc(SC(F)(F)F)c2)c1-c1ccc(C#N)cc1 | 27 | 20
COC(=O)c1ccc(COC(=O)CN2C(=O)NC3(CC(C)CC(C)(C)C3)C2=O)o1 (stereo unspecified) | 2 | 10
COCC(c1ccccn1)N(C)Cc1c(C)nn(C)c1Cl (stereo unspecified) | 5 | 0
CCOC(=O)C1(C/C=C/c2ccccc2)CCCN(C(=O)C(=O)c2ccccc2)C1 (stereo unspecified) | 20 | 12
O=C(Nc1ccccc1-c1nc2cc([N+](=O)[O-])ccc2o1)c1ccccc1F | 2 | 5
O=C(CNc1ccccc1)Nc1ccc(N2CCCC2=O)cc1 | 4 | 4
COc1cccc(CO[C@]2(C(=O)NCCN3CCOCC3)CC(OCc3ccc(C(F)(F)F)cc3)[C@H](O)[C@H](O)C2)c1 (stereo partly specified) | 5 | 14
Cc1ccc(-c2cc(C(=O)N(C)C(C)C(C)(C)C)[nH]n2)cc1 (stereo unspecified) | 6 | 4
CCNC(=O)N(Cc1nccn1Cc1ccc(C(F)(F)F)cc1)C(C)C | 4 | 6
CC1(C(=O)NCC2CC2)Cc2c(-c3ccccc3)ccnc2O1 (stereo unspecified) | 19 | 16
O=C1N(C2CCCCC2)C(c2ccccc2)=NC1(O)C(F)(F)F (stereo unspecified) | 12 | 3
CS(=O)(=O)C1[C@@H]2OCCC[C@@H]2S1(=O)=O (stereo partly specified) | 11 | 3
Cc1cc(-n2c(C)cc(C(=O)OCC(=O)NC(C)C3CC4CCC3C4)c2C)no1 (stereo unspecified) | 5 | 0
CC(C)Cn1c(N)c(-c2csc(-c3cccc(C(N)=O)c3)n2)c(=O)n(C)c1=O | 11 | 9
COc1cc(OC)cc(C(=O)N2CCN(c3cc(Cl)ccc3OC)C(=O)C2C)c1 (stereo unspecified) | -1 | 11
Cc1cc(F)ccc1S(=O)(=O)Nc1cc(-c2ccco2)nn1C1CCS(=O)(=O)C1 (stereo unspecified) | 0 | -1
Cc1cccc(C)c1NC(=O)CN(C)c1ccc(C(F)(F)F)cn1 | 3 | 1
O=C(NCCC(c1ccccc1)c1ccccc1)c1cccc(CSc2nc(Cl)cc(N3CCCC3)n2)c1 | 9 | 8

Entries of single compounds, looked up by structure:
`C=CCn1c(SCc2cc(=O)n3c(C)csc3n2)nnc1C1CCCCC1` is entered as NPYLR7 ag = 7; NPYLR7 ag max-min = 8
`COc1cc(OC)cc(C(=O)N2CCN(c3cc(Cl)ccc3OC)C(=O)C2C)c1` (stereo unspecified) is entered as NPYLR7 ag = -1; NPYLR7 ag max-min = 11

Quoted from above (four entries):
SMILES | NPYLR7 ag | NPYLR7 ag max-min
Cc1cccc(-c2nnc(-c3ccc(C(=O)NCC(C)(C)O)cc3)o2)c1 | 4 | 1
COc1ccc(C(=O)C2CCCN(C(=O)CCc3cccs3)C2)cc1OC (stereo unspecified) | -6 | -10
CC(C)CN(CC(=O)N(CCc1ccccc1)Cc1ccco1)C(=O)c1ccc2c(c1)OCO2 | -5 | -5
C=CCn1c(SCc2cc(=O)n3c(C)csc3n2)nnc1C1CCCCC1 | 7 | 8

Going on with the list.
SMILES | NPYLR7 ag | NPYLR7 ag max-min
CC(C)CN(C(=O)C1CCCO1)c1c(N)n(CC(C)C)c(=O)[nH]c1=O (stereo unspecified) | -5 | 0
Cc1ccc(Cn2c(=O)c(C(=O)N3CCOCC3)nn(-c3cccc(Cl)c3)c2=O)cc1 | 4 | 8
Cc1ccc(S(=O)(=O)c2nnc(-c3ccccc3)s2)cc1 | -7 | 21
CCCOc1ccccc1N1CCn2c1nc1c2c(=O)n(CCC)c(=O)n1C | 15 | 5
COc1cccc(C(=O)c2sc3c(c2N)c(=O)[nH]c(=O)n3C2CCCCC2)c1 | 5 | 4
Cc1ccc(-c2nc(COc3ccc(C)cn3)co2)cc1 | 9 | 4
Cc1ccc(C)c(CN(CC(=O)N(CCc2ccccc2)Cc2ccc(C)o2)CC2CC2)c1 | 3 | 3
COCCN(Cc1cccs1)C(=O)c1cc(C)c(C)s1 | -2 | -9
Cn1ccc(NS(=O)(=O)c2ccc(Cl)cc2C(F)(F)F)n1 | 10 | 4
C=CCC(O)(CC=C)CNC(=O)c1ccc(OC)c(OC2CCN(C(C)=O)CC2)c1 | -1 | -2
COc1nn(C)cc1C(=O)NCCc1ccc(S(N)(=O)=O)cc1 | 4 | 9
CC(=O)Nc1nnc(SCc2ccccc2C(F)(F)F)s1 | 3 | 1
Cc1ccc(Cl)c(CN2CCN(c3cc(NCCO)ncn3)CC2)c1F | -6 | -6
CCOC(=O)N1CCN(C(c2ccccc2OC)c2c(O)cc(C)n(CC)c2=O)CC1 (stereo unspecified) | 7 | 0
CCOc1ccccc1C(=O)Nc1ccc(N2CCN(C(=O)c3c(C)noc3C)CC2)nc1 | 22 | 28
O=C(COc1cccc(Cl)c1)N1CCC(CCc2ccc(-c3ccccc3)cc2)CC1 | 4 | 1
CCN(CC)c1ccc(CN(CCOC)C(=O)c2ccccc2Cl)c(OS(=O)(=O)c2ccc(OC)cc2)c1 | 34 | 37
Cc1nc2sccn2c1C(=O)N(C)Cc1nnc(-c2ccccc2)o1 | 13 | 2
CCOC(=O)C1CCCN(C(=O)c2coc(COc3ccc(F)cc3)n2)C1 (stereo unspecified) | -1 | -3
CN1C(=O)N(CCc2ccccc2)C(=O)C12CCN(Cc1ccc3c(c1)OCO3)CC2 | 9 | 4
N/C(=N\OCC(=O)Nc1cccc2ccccc12)c1nonc1N | -1 | -2
COc1ccc(-n2nc(-c3ccccc3)cc2NC(=O)c2ccc(F)c(C(F)(F)F)c2)cc1 | 5 | 0
Cc1nc(NCCNC(=O)Nc2cccc(C)c2C)cc(N2CCCC2)n1 | 4 | 1
CCOC(=O)c1ccc2c(c1)nc(SCc1c(F)ccc(C)c1F)n2CCOC | 5 | 6
COc1ccc(Cl)cc1Cn1c(C)c(C(=O)NCc2ccc(C(F)(F)F)cc2)sc1=O | 2 | 0

Further entries.
SMILES | NPYLR7 ag | NPYLR7 ag max-min
CCCN(CC(=O)N(CCc1ccc(OC)c(OC)c1)Cc1sccc1C)C(=O)c1ccc(C(F)(F)F)cc1 | 2 | 4
COC(=O)[C@H]1C[C@@H](O)CCN1C(=O)c1cccc(OC)c1 | 3 | 41
O=C(C1C[C@H]1c1ccccc1)N(CCN1CCOCC1)CC(=O)N(Cc1cccn1Cc1ccccc1)C1CC1 (stereo partly specified) | -13 | -3
CCn1c(C2CCN(C(=O)CC3CCS(=O)(=O)C3)CC2)nn(C)c1=O (stereo unspecified) | 26 | 17
CCN(CC(=O)Nc1ccccc1OC)C(=O)CN1C(=O)COc2ccccc21 | 11 | 9
CCOC(=O)C1C(=O)C=C(c2ccc(C)cc2)CC1c1cccs1 (stereo unspecified) | 22 | 26
CCOC(=O)C1=C(COC(=O)CNC(=O)C23CC4CC(CC(C4)C2)C3)NC(=O)NC1C (stereo unspecified) | 19 | 9
Cc1ccoc1C(=O)Nc1ccc(Br)c(C)n1 | 5 | 1
CN(C)c1nc(SCCO)nc(N(C)C)n1 | 9 | 1
Cc1ccccc1OCCSCCCn1c(=O)[nH]c2ccccc21 | 0 | -1
COc1ccc(C(=O)N2CCc3ccccc3C2c2ccccc2F)cc1 (stereo unspecified) | -1 | 9
O=C(NCCc1ccc(Cl)cc1)c1cnc2sccn2c1=O | 0 | 3
CCOc1nnc(CN2CCOC(c3n[nH]c(CC)n3)C2)s1 (stereo unspecified) | 2 | 2
CSc1ccc(CNC(=O)C2(C)CCCN2CC(C)C)cc1 (stereo unspecified) | 7 | 3
COc1ccc(CCNS(=O)(=O)c2ccc(F)c(C)c2)cc1OC | 1 | -3
O=c1[nH]c(Cn2nc3ccccn3c2=O)nc2sc3ccccc3c12 | 12 | 5
CC(C)N(Cc1cccc(OS(C)(=O)=O)c1)C(=O)Nc1ccccc1C(F)(F)F | -8 | -8
O=C(c1ccc(F)cc1Cl)N1CCN(S(=O)(=O)c2ccccc2F)CC1 | 0 | 6
CCOC(=O)C1(Cc2ccccc2)CCCN(C2CCSCC2)C1 (stereo unspecified) | 6 | 0
CN(CC1CC(=O)N(C(C)(C)C)C1)C(=O)CCNC(=O)c1ccc(F)cc1 (stereo unspecified) | 6 | -2
CNc1cc(=O)n(C2CCCCC2)c(=O)n1C1CCCCC1 | 13 | 7
O=C(c1ccc2c3c(cccc13)CC2)C1CCCN(C(=O)c2ccccn2)C1 (stereo unspecified) | 2 | 0
CCCCN(CC(N)=O)S(=O)(=O)c1ncn(C)c1Cl | -6 | -7
Brc1ccc(C2=Nc3nnnn3C(c3ccco3)C2)cc1 (stereo unspecified) | 8 | 4
CC(Cl)C(=O)N1CCC(Cc2ccc3c(c2)OCO3)CC1 (stereo unspecified) | 4 | 0

More compounds follow.
SMILES | NPYLR7 ag | NPYLR7 ag max-min
O=C(NCc1cc(Br)cs1)NCC1CCC1 | 7 | 4
CCCNC(=O)COC(=O)c1snc(-c2ccccc2)c1N | -6 | -7
CC(C)(CO)NC(=O)c1ccccc1NCC(=O)O | 22 | 14
C[C@@H]1[C@H](O)[C@@H](C)/C=C/C=C/C=C/C=C/C=C/C=C/C=C[C@H](O[C@@H]2O[C@H](C)[C@@H](O)[C@H](N)[C@@H]2O)C[C@@H]2O[C@](O)(C[C@@H](O)C[C@@H](O)[C@H](O)CC[C@@H](O)C[C@@H](O)CC(=O)O[C@H]1C)C[C@H](O)[C@H]2C(=O)O | 13 | 16
Cc1cc(C)c(-n2cccn2)c(CN2CCN(C)C3(CCN(C)CC3)C2)c1 | 5 | -8
Cn1c(=O)n(Cc2cccc3ccccc23)c(=O)c2c1nc1n2CCCN1Cc1ccccc1 | 0 | -2
Cc1cccn2c(=O)c3cc(C(=O)NC(C)C)sc3nc12 | 6&12 | 1&6
O=C(c1ccno1)N(CCN1CCOCC1)c1nc2ccccc2s1 | 2 | 20
O=C(COc1cc(Cl)c(Cl)cc1Cl)Oc1ccc2c(c1)OCO2 | 3 | 6
O=c1c(N=Nc2ccc(Cl)cc2Cl)c(-c2ccc([N+](=O)[O-])cc2)[nH]n1-c1ccccc1 | 4 | 2
Cc1ccccc1OCc1ccc(-c2nc(C#N)c(N3CCCCC3)o2)o1 | 0 | 28
Cc1ncsc1CCCn1cnc(-c2ccccc2)c1-c1cnn(C)c1 | 8 | 3
CC1=C(C(=O)Nc2ccc(F)cc2)C(c2c(C)n[nH]c2C)NC(=O)N1C1CC1 (stereo unspecified) | 0 | -2
Cc1ccc(C(=O)N2CCN(Cc3cc(=O)n4ccsc4n3)CC2)cc1NC(=O)c1ccco1 | 8 | 6
COc1cc(CCC(=O)NC(C)(C)C)ccc1OCC(F)(F)F | 2 | 7
Cc1cc(C(=O)N2CCCN(c3ccncc3C)CC2)nc(C)n1 | 1 | -2
O=C(c1cnc2[nH]c(=O)c3ccccc3c2c1)c1ccccc1O | 4 | 2
O=C(C1Cc2ccccc2O1)N1CCc2onc(-c3ccc(F)c(F)c3)c2C1 (stereo unspecified) | 17 | 14
Cc1c(C)c(C)c(S(=O)(=O)N2CCN(c3nccc(-c4ccco4)n3)CC2)c(C)c1C | 7 | 3
CCn1c(C2CCN(c3ncnc4sc(C)cc34)CC2)n[nH]c1=O | 7 | 7
COC(=O)C1=C(O)/C(=C\c2cccn2C)SC1=Nc1cccc(F)c1 | -4 | 5
O=C(/C=C/c1ccc(O)c(O)c1)NC(=O)c1ccccc1O | 0 | -1
COc1cn2c(cc1=O)C(=O)N(CCNC(=O)c1ccc(-c3ccccc3)cc1)CC2 | 15 | 5
COc1cccc2c1CCC2NC(=O)N1CC(C)OC(C)C1 (stereo unspecified) | 4&6 | 1&3
O=C(COCc1ccccc1)N1[C@H]2CCNC[C@@H]1CC2 | 1 | 0

The list goes on:
SMILES | NPYLR7 ag | NPYLR7 ag max-min
Cc1cccc(CC(=O)Nc2cc(C)c3c(=O)oc4ccccc4c3n2)c1 | 4 | 0
O=C(c1cccs1)N1CCN(c2nc3nccc(-c4ccc(C5CCCCC5)cc4)n3n2)CC1 | 1 | 1
O=C(NCc1ccc2c(c1)OCO2)c1cccnc1N1CCN(S(=O)(=O)c2cccc(Cl)n2)CC1 | 0 | -1
O=C(NCC1Cc2cc(Oc3ccccc3)ccc2O1)c1ccccc1Br (stereo unspecified) | -3 | 1
NC(=O)[C@@H]1CN(C(=O)c2ccc(F)cc2)[C@H]2c3ccccc3O[C@@H]12 | 4 | 13
CS(=O)(=O)c1ccc(-c2ccc(CN3CCCC3)cn2)cc1 | -4 | -7
COc1ccc(CC(=O)Nc2c(-c3cccc(F)c3)nc3cc(C)ccn23)cc1 | -14 | -8
COC(=O)c1ccc(CSC(=S)N(C)C)cc1 | -4 | -3
Cc1ccc2nc(C)c(C(=O)OCC(=O)NCC(=O)N3CCCC3)cc2c1 | 0 | 86
O=C1NC(=Nc2ccccc2)S/C1=C/c1cccs1 | -10 | -14
O=C(N[C@H]1CCC[C@H]1Cc1ccc(F)cc1)c1cc2n(n1)CCNC2 | -1 | -1
Cc1ccc(C)c(CN2CCN(c3nc4c(c(=O)[nH]c(=O)n4C)n3CC(C)C)CC2)c1 | 0 | 29

Copied from the list:
Reading of O=C(N[C@H]1CCC[C@H]1Cc1ccc(F)cc1)c1cc2n(n1)CCNC2 in NPYLR7 ag: -1
Reading of COC(=O)c1ccc(CSC(=S)N(C)C)cc1 in NPYLR7 ag max-min: -3
Reading of O=C(c1cccs1)N1CCN(c2nc3nccc(-c4ccc(C5CCCCC5)cc4)n3n2)CC1 in NPYLR7 ag max-min: 1

Not all compounds are listed; the hit share may differ from the screen's.
